# Ecoli growth = blocks Escherichia coli growth. OD600, 23 h; hits give low values. OD600 absorbance (concentration not given with the values). 330,000 tested, 0.21% active. AID 1053175;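 active = OD600 absorbance below the run mean of sample wells minus 3.6 SD, in any replicate, cut at about 0.56 in these data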;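 also: stock transfer was 300 nL into about 60 µL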
# ALR inh = blocks human ALR sulfhydryl oxidase activity | P55789 | purified ALR, DTT oxidation, H2O2 HRP-luminol luminescence | inhibition, % (concentration not given with the values) | 290,000 tested, 3.8% active | AID 485317;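 active = mean and each replicate at 75% or more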;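 also: stock transfer was 7.5 nL into about 7.5 µL; 0% = neutral wells and 100% = wells with inactivated enzyme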
# Target sequence (P55789 whole entry, looked up): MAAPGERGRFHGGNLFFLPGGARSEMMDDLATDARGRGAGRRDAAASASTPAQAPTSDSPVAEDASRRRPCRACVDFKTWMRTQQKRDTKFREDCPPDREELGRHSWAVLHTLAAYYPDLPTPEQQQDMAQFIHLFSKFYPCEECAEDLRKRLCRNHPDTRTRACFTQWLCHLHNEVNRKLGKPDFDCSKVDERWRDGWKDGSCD
# Ecoli rRNA inh = inhibitors of bacterial rRNA selective over humanized ribosomes; E. coli WT GFP vs humanized-ribosome RFP mutants, fluorescence, 24 h; hits give low values; DMSO median 0, no signal -100; GFP signal change (wild-type ribosome), % (no concentration beside the values); 350,000 tested, 1.6% active;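 active = significant combined selectivity score with lowered wild-type GFP, culture density cut under 30%, mutant RFP and density less affected; inactive = any of these conditions unmet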; also: one replicate is shown; some compounds called inactive have numbers as strong as hits
# HNF4A DNA FP = change in binding of human HNF4 alpha to DNA; HNF4a-FITC DNA binding, fluorescence polarization, 1 h; activity change, % at 10 µM; AID 1224865; 360,000 tested, 0.3% active; P41235; in the data active = activity change above about 30%, passing the limit was not always enough;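 also: controls were the assay level and a saturating level of protein; the project sought stronger binding though the title names inhibitors; some compounds called inactive have numbers as strong as hits; positive values seem to mean higher polarization but the record does not say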
# UCH37 DUB inh = human UCH37 deubiquitinating enzyme inhibition; inhibition, % (no concentration beside the values); Q9Y5K5; 330,000 tested, 0.33% active; purified proteasome/UCH37, Ub-AMC cleavage fluorescence;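 active = mean of two replicates above 20%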;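 also: 0% = compound-free wells with enzyme and 100% = wells lacking proteasome; stock transfer was 100 nL into about 20 µL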
#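 System: Proteasome-associated human UCH37 deubiquitinase; Input: 0.15 nM proteasome in added enzyme buffer; Also added: Ub-AMC substrate from 1 µM stock; Incubation: 30 min compound-proteasome preincubation then 25 min substrate reaction, room temperature; Detection: fluorescence, ex 355 nm, em 460 nm; Read-out: % inhibition of Ub-AMC cleavage fluorescence; Benchmarks: no-proteasome and no-compound wells.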
# B2AR ag = activates human beta-2 adrenergic receptor causing internalization; AID 504454; 340,000 tested, 0.43% active; Am2.2-beta2AR cells, FAP receptor internalization, flow cytometry; reference of the scale not given here; response, % (no concentration beside the values); P07550;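 active = response above a set limit, near 3 SD of response in nonfluorescent compounds, cut at about 42% in these data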;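 also: stock transfer was 100 nL into about 11 µL; a reference agonist was the positive control; negative values mostly stem from fluorescent compounds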
# Target sequence (P07550 whole entry, looked up): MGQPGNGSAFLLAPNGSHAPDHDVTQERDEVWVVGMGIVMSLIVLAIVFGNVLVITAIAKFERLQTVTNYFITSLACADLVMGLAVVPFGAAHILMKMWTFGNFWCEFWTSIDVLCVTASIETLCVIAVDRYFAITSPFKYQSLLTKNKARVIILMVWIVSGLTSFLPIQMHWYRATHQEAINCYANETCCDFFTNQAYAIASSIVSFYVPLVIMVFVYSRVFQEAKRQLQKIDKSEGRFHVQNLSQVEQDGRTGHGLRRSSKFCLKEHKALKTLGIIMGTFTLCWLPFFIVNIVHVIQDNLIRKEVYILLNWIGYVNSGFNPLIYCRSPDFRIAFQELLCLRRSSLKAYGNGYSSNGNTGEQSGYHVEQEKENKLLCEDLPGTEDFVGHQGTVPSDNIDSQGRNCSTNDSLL
# FGF22 binding = FGF22 (human) thermal shift binding; recombinant FGF22 thermal shift, SYPRO orange fluorescence; percent of sucrose octasulfate shift, DMSO zero; calls only at 9.99 µM; 340,000 tested, 1.5% active; AID 651658;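 active = melting point raised past a set limit in the mean and every replicate; three in four hits are not shown here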
# Target sequence (Q9HCT0 whole entry, looked up): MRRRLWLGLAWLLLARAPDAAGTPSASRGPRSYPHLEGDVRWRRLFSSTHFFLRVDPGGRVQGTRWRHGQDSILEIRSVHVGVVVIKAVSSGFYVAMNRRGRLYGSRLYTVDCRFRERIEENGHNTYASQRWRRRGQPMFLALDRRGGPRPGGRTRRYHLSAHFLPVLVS
# Ecoli rRNA inh OD600 = second read-out of Ecoli rRNA inh, no call of its own (marks repeat the call); OD600 change, %; measured here: OD600 growth;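 optical density of the mix in the first replicate; 0 = DMSO median and -100 = no signal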
# Ecoli rRNA inh RFP = further read-out of Ecoli rRNA inh, marked with its call; RFP signal change, %; measured here: RFP humanized mutant strains;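 first replicate; 0 = DMSO median and -100 = no signal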
# Active calls of the source: *; i = inactive; x = not tested or not shown. The list is partial (hit frequency here may not be typical).
no.	compound	Ecoli growth	ALR inh	Ecoli rRNA inh	Ecoli rRNA inh OD600	Ecoli rRNA inh RFP	HNF4A DNA FP	UCH37 DUB inh	B2AR ag	FGF22 binding
1	Cc1csc(/C(=N\O)c2csc(C)n2)n1	x	-5	-17	-1	-3.2	-1.8	x	1	i
2	CC1(C)Cc2ccccc2-c2nc3n(c(=O)c21)CCCS3	0.67	-12	21	14	0.3	-0.9	-11	-10	i
3	O=C1C(Cc2c[nH]c3ccccc23)NC(=S)N1Cc1ccccc1 (stereo not drawn)	0.68	9	-5	-5	0.3	-2.3	2.1	9	i
4	CCOc1ccccc1N1CC(C(=O)NC2CCCCCC2)CC1=O (stereo not drawn)	0.67	3	-5	2	-0.6	-3.1	1.2	5	i
5	O=C(Nc1ccc(Cl)c(S(=O)(=O)N2CCCCC2)c1)C1=COCCO1	0.6	-1	-3	-3	-0.8	0.2	0.8	11	i
6	O=C(COC(=O)c1cccc(S(=O)(=O)N2CCc3ccccc32)c1)Nc1ncc(C(F)(F)F)cc1Cl	0.74	-7	x	x	x	3.6	1.6	0	x
7	COc1ccc(CN(C)C(=O)C2CSC3(C)CCC(=O)N23)cc1 (stereo not drawn)	0.71	10	16	15	0.3	0.1	-0.2	-2	i
8	CCCN(CCC)CCCNC(=O)c1cn(C)c2ccc(S(=O)(=O)N(C)C3CCCCC3)cc2c1=O	0.66	0	10	14	-2.1	-0.1	2.0	3	i
9	COc1ccc(C2/C=C\CN(CC3CC3)CC(=O)N2Cc2ccc(F)cc2)cc1 (stereo not drawn)	x	x	-1	1	5.5	-1.3	2.6	-5	i
10	CC1CC(C)CN(c2ccc(-n3cnnn3)cc2[N+](=O)[O-])C1 (stereo not drawn)	0.7	-1	x	x	x	-0.6	3.7	-2	x
11	O=C(N/N=C/c1cn(-c2ccccc2)nc1-c1cccs1)c1ccc(Cl)cc1	x	-3	x	x	x	3.6	x	1	x
12	COCCCNC(=O)/C=C/[C@H]1O[C@@H](n2cnc3c(NC(=O)c4ccccc4)ncnc32)[C@H](O)[C@@H]1O	x	x	14	15	3.4	0.3	x	x	i
13	COC(=O)COc1cc(OCC(=O)OC)c2c(-c3ccccc3)cc(=O)oc2c1	0.66	-6	0	-3	-1.3	0.5	6.2	1	i
14	O=C(NCc1ccccc1)c1cccc(COc2ccc(Cl)cc2)c1	0.68	-2	x	x	x	-0.2	0.0	-8	x
15	Cc1ccc(C(=O)N/N=C/c2nc3ccccc3n2C)cc1	x	-1	x	x	x	-1.8	x	-13	x
16	COCCn1c(=O)c2c(nc3n2CCCN3Cc2ccccc2)n(C)c1=O	0.65	24	3	-12	-0.2	1.3	5.3	8	i
17	O=C(Nc1ccc(S(=O)(=O)N2CCCC2)cc1)C1CC(=O)N(c2ccccc2)C1 (stereo not drawn)	0.65	-4	-12	-9	-4.7	0.7	0.4	2	i
18	COC(=O)CNC(=O)c1cccs1	0.64	-2	x	x	x	0.9	0.1	3	x
19	COc1ccc(-c2noc(C3CCCN(C(=O)c4c(F)cccc4F)C3)n2)cc1OC (stereo not drawn)	0.69	-5	-19	-20	3.0	1.2	0.3	15	i
20	N#C/C(=C(/O)COC(=O)Cc1c[nH]c2ccccc12)c1nc2ccccc2[nH]1	x	-20	x	x	x	19	x	12	x
21	Cc1cc2c(cc1S(=O)(=O)N1CCN(c3cccc(C(F)(F)F)c3)CC1)OCC(=O)N2	0.65	3	1	-2	0.1	1.4	0.4	-5	i
22	CCC(C)NC(=O)Nc1ccc2c(c1)N(C)C(=O)c1ccccc1S2 (stereo not drawn)	0.68	-3	x	x	x	2.8	5.2	-7	x
23	COc1cccc(CN(C)C(=O)c2ccccc2Sc2ccccc2C#N)c1	0.68	0	-56	-66	-14	-0.6	0.4	5	i
24	COc1ccc(CC(=O)NCCc2ccc(S(N)(=O)=O)cc2)cc1	0.68	-4	x	x	x	-4.5	1.0	2	x
25	CCc1cccc(NC(=O)C2CCCN(c3ncnc4c3nc3n4CCCCC3)C2)c1 (stereo not drawn)	0.67	2	-19	-29	27	-2.2	1.7	-2	i
26	O=C(O)C1CC(=O)N(c2ccc(OCc3c(F)cccc3Cl)cc2)C1 (stereo not drawn)	0.72	2	x	x	x	-1.5	0.6	2	x
27	CC(C)(C)NS(=O)(=O)c1ccc(N2C(=O)c3ccccc3C2=O)cc1	0.7	-38	x	x	x	-0.1	1.8	6	x
28	CC1CCC2(CC1)NC(=O)N(CC(=O)Nc1ccc(N3CCOCC3)cc1)C2=O (stereo not drawn)	0.65	16	-3	-6	-3.1	1.0	1.1	-2	i
29	Cc1ccc(CNC(=S)Nc2cc(C)ccc2OC(F)F)cc1	0.68	12	-21	-36	-8.4	-4.5	-1.2	8	i
30	CC1(C)Cc2c(C#N)c(N3CCN(C(=O)c4ccco4)CC3)nc(Cc3ccccc3)c2CO1	0.74	-6	x	x	x	-1.1	-40	10	x
31	CCCOc1cccc(C(=O)N(Cc2ccco2)C2CCS(=O)(=O)C2)c1 (stereo not drawn)	0.74	1	x	x	x	-0.3	0.6	1	x
32	CCOc1cc(C(=O)Nc2cccc3ncccc23)cc(OCC)c1OCC	0.73	x	-4	-11	6.0	1.0	1.6	-8	i
33	Cc1ccc(Sc2ccc([N+](=O)[O-])cc2[N+](=O)[O-])nc1	0.69	-54	x	x	x	-2.6	7.6	-18	x
34	CC(OC(=O)c1cnccn1)C(=O)c1ccccc1 (stereo not drawn)	0.63	-6	5	13	-1.6	6.5	-0.5	8	i
35	O=C1NC(=O)C2(CCC(C(=O)O)C2)N1 (stereo not drawn)	0.7	2	x	x	x	-3.0	1.1	-4	x
36	O=C(CSc1nc2scc(-c3ccccc3)c2c(=O)[nH]1)Nc1ccccc1	0.74	-4	-4	-7	6.4	-2.4	2.8	-5	i
37	CC1CCCN(S(=O)(=O)c2ccc(NC(=O)Cn3nnc(-c4ccccc4F)n3)cc2)C1 (stereo not drawn)	0.69	-4	-22	-24	5.9	2.3	-0.1	0	i
38	CC(C)(C)n1nc2c(c1NC(=O)c1ccc(S(=O)(=O)N3CCCCC3)cc1)CS(=O)C2 (stereo not drawn)	0.72	-18	x	x	x	-2.3	-0.3	1	x
39	CCOC(=O)c1sc(=S)n(-c2ccc(OC)cc2)c1N	0.67	x	-5	1	-3.9	-0.6	7.5	-5	i
40	O=C(O)C1=C[C@@H](c2ccc(Br)cc2)C[C@@H](OCc2ccc(CO)cc2)O1	x	x	-10	-14	-3.2	-5.4	3.3	0	i
41	COC(=O)Nc1ccc(S(=O)(=O)N2CCCCC2C(=O)O)cc1 (stereo not drawn)	0.71	4	18	13	-0.6	0.8	3.8	1	i
42	C#CCOn1c(-n2nc(C)cc2C)nc2ccccc2c1=O	0.68	-9	0	-8	-4.7	-1.6	-0.9	1	x
43	COc1ccc(N(CC(=O)NC2CCS(=O)(=O)C2)S(=O)(=O)c2ccc(Cl)c(Cl)c2)cc1 (stereo not drawn)	0.67	x	15	7	0.9	2.3	0.5	-9	i
44	O=C(N/N=C/c1ccco1)c1cccc(NC(=O)c2ccccc2Cl)c1	x	0	x	x	x	-2.1	x	-4	i
45	Cc1ccc(C(=O)N2CCCC(CCC(=O)N3CCN(c4ccccn4)CC3)C2)s1 (stereo not drawn)	0.68	-1	-17	-12	2.5	-2.4	2.1	-12	i
46	Fc1ccc(NC(=S)NCCc2ccc(Cl)cc2)cc1	0.67	19	-26	-33	3.1	-1.8	1.8	5	i
47	COc1ccc(CNC(=O)C2=C(C)C(=O)OC23CCC(C)CC3)cc1 (stereo not drawn)	0.73	x	-6	-2	-2.7	0.8	4.9	-10	i
48	COc1ccc(OCC(=O)Nc2ccc(N3CCC(C)CC3)cc2)cc1	0.69	2	12	17	8.6	3.1	3.6	6	x
49	COc1ccccc1-n1c(SCC(=O)O)nc2c(sc(=S)n2-c2ccccc2C)c1=O	0.63	-5	-3	-3	-0.5	2.0	7.7	-1	i
50	CCOc1ccc(C2/C(=C(/O)c3ccc4c(c3)CC(C)O4)C(=O)C(=O)N2CCCn2ccnc2)cc1 (stereo not drawn)	0.67	8	-4	7	0.3	-0.1	7.3	-7	i

# Next part, starting with the last three of the part before.
no.	compound	Ecoli growth	ALR inh	Ecoli rRNA inh	Ecoli rRNA inh OD600	Ecoli rRNA inh RFP	HNF4A DNA FP	UCH37 DUB inh	B2AR ag	FGF22 binding
48	COc1ccc(OCC(=O)Nc2ccc(N3CCC(C)CC3)cc2)cc1	0.69	2	12	17	8.6	3.1	3.6	6	x
49	COc1ccccc1-n1c(SCC(=O)O)nc2c(sc(=S)n2-c2ccccc2C)c1=O	0.63	-5	-3	-3	-0.5	2.0	7.7	-1	i
50	CCOc1ccc(C2/C(=C(/O)c3ccc4c(c3)CC(C)O4)C(=O)C(=O)N2CCCn2ccnc2)cc1 (stereo not drawn)	0.67	8	-4	7	0.3	-0.1	7.3	-7	i
51	CCN1C(=O)/C(=C/C=C2/CCCN2C)OC1=S	0.72	98*	2	2	4.2	88*	29*	-3	i
52	O=Cc1nc(-c2ccccc2Cl)n2ccccc12	0.68	-11	-2	-2	0.4	0.3	5.4	0	i
53	O=C(CCNC(=O)c1ccccc1Cl)NCc1cccnc1	0.69	-1	8	13	3.9	2.6	0.1	5	i
54	COc1cccc(NC(=S)N2CCCC2c2ccc(OC)c(OC)c2)c1 (stereo not drawn)	0.67	-1	1	-1	-2.2	-2.1	5.3	2	i
55	CCSC1=N/C(=C\c2ccc(OC)cc2)C(=O)N1	0.68	6	1	6	-0.8	-0.3	6.4	-11	i
56	O=C(CSC1=NS(=O)(=O)c2cc(F)ccc2N1)NCCc1ccccc1	0.7	-2	7	3	-3.2	3.2	3.8	-4	i
57	Cc1snc(SCC(=O)c2ccc(Cl)cc2)c1C#N	0.73	-5	x	x	x	1.8	1.1	-5	x
58	Cc1cc(NC(=O)c2ccccc2)ncc1NC(=O)c1ccco1	0.71	-8	x	x	x	1.3	0.4	1	x
59	CCNC(=S)N1CCN(CCN2C(=O)c3cccc4cccc(c34)C2=O)CC1	0.68	-10	14	6	0.4	-3.9	1.4	-2	i
60	Nc1sccc1C(=O)NC1CC1	x	x	19	18	14	0.8	x	x	i
61	Cn1c(O)c(N=NC(=O)c2ccccc2O)c2ccccc21	0.66	-5	12	10	2.8	0.5	12	-16	i
62	Cc1cc(N2CCN(C)CC2)nc(=S)[nH]1	0.71	39	9	-1	-1.4	-0.5	1.1	5	i
63	CCN(CC)c1ccc(CNc2nc3ccccc3n2CCN2CCOCC2)cc1	0.65	98*	-9	-5	-0.6	-6.6	-1.2	-1	i
64	CC1CC(C)CN(S(=O)(=O)c2cccc(C(=O)N3CCN(c4ccc(F)cc4)CC3)c2)C1 (stereo not drawn)	0.7	x	-2	-28	-1.1	1.4	2.4	5	i
65	COc1cc([N+](=O)[O-])ccc1NC(=O)NNC(=O)c1sccc1C	0.72	5	-3	3	2.5	0.9	2.7	12	i
66	O=C(CCN1C(=O)/C(=C/c2cccs2)SC1=S)N1CCCCC1	0.68	x	24	9	27	9.9	2.2	-2	i
67	S=c1[nH]nc(-c2ccccc2)n1/N=C/c1ccc(Cl)cc1	x	13	-13	-9	2.5	0.0	x	4	i

# Just HNF4A DNA FP (2 entries from above):
cpd	compound	HNF4A DNA FP
61	Cn1c(O)c(N=NC(=O)c2ccccc2O)c2ccccc21	0.5
67	S=c1[nH]nc(-c2ccccc2)n1/N=C/c1ccc(Cl)cc1	0.0

# Screening data (PubChem BioAssay)
